Bioassay records from PubChem.
MT1-MMP reporter = MT1-MMP gene expression reporter suppression – cell-based, luciferase reporter, luminescence (AID 618) | 87,000 compounds, 0.62% hits | MT1-MMP promoter luciferase reporter cells, luminescence | calls from a first round at 10 µM; hits with a dose series show EC50 in µM;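 active = over half of the reporter light lost at 10 µM or EC50 under 50 µM; inactive = the rest and hits that failed the dose series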;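 note: actives suppress MT1-MMP promoter-driven transcription so potencies describe inhibitors; HT1080 fibrosarcoma cells; overnight exposure; toxic or luciferase-blocking compounds were not removed from the actives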
WNV NS2B-NS3 inh = inhibitors of West Nile virus NS2B-NS3 protease; P06935; WNV NS2B-NS3 protease, fluorogenic substrate Ex360/Em465; stronger effect = lower value; z-score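 (tested at a level between 10 and 100 µM)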; 65,000 compounds, 0.18% hits; AID 577;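 active = z-score at -3 or under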;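 note: score is relative to mean and spread of the compound wells of a plate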
Target sequence (P06935 1371-1501 limits assumed): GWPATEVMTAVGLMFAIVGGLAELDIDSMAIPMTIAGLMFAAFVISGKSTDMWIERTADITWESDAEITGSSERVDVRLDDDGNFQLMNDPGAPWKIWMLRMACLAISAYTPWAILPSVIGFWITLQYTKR
Target sequence (P06935 1502-1679 limits assumed): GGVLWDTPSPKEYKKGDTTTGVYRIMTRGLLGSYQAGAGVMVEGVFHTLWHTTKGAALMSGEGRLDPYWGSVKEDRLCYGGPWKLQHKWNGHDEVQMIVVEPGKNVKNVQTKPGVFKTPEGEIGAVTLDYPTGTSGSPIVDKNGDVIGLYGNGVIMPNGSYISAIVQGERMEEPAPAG
Hsc70 = small molecules displacing fluorescent ligand from Hsc70 – biochemical, fluorescence polarization, primary screen (AID 568). Hsc70 fluorescence polarization, probe displacement; higher % means a stronger effect; strong numbers were not always called active. one-dose displacement, % at 20 µM; IC50 in µM for titrated hits. 83,000 tested, under 10 active;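 active = displacement above 50% without optical interference and an IC50 on retest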;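 note: ATPase domain with a fluorescein-tagged ATP probe; 0% = vehicle and 100% = excess ADP; read after one hour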
The depositor's hits bear a star; i = inactive; . = no result given; + = active, no number. No enrichment for hits; about 0.77% have a hit in one of these screens.

SMILES | MT1-MMP reporter | WNV NS2B-NS3 inh | Hsc70
COc1ccc(N/N=C(\C=N\O)C(=O)c2ccc(OC)cc2)cc1 | + | . | -3.5%
CN(C(=O)c1ccc(S(=O)(=O)NC2CCCC2)cc1)C1CCCCC1 | i | 0.58 | -0.5%
CC1=C(C(=O)N2CCOCC2)C(c2ccsc2)C2=C(CCCC2=O)N1 (stereo unspecified) | i | 0.65 | 2.0%
CCCc1ccc(OCCNC(C)=O)cc1 | i | -1.14 | 0.0%
Cc1onc(-c2ccccc2)c1C(=O)NCc1cccnc1 | i | 0.25 | -2.4%
Cc1ccc(CNC(=O)NC2CCCCC2)cc1 | i | . | 2.2%
Nc1ncnc2c1cnn2-c1ccccc1 | i | -0.49 | 0.7%
Cc1ccccc1CSc1nncn1N | i | 0.91 | -4.8%
COc1ccc2nc(N)sc2c1 | i | . | 3.6%
CCCc1nc(NC2CCCCC2)c(C#N)c2c1COC(C)(C)C2 | i | 2.03 | 3.3%
CC(=NC1CC1)C1=C(O)c2ccccc2C1=O | i | . | 0.3%
CCN(CC)CCNC(=O)C1c2ccccc2C(=O)N(CCOC)C1c1ccc(F)cc1 (stereo unspecified) | i | . | 1.7%
Cc1ccccc1Nc1nc(N)nc(CSc2nnc3sc4ccccc4n23)n1 | i | 0.24 | -7.4%
CCOC(=O)c1c(-c2ccc(C)o2)csc1N | i | -0.02 | 1.8%
Cc1nnc(SCc2ccon2)n1-c1ccccc1 | i | 0.24 | 2.6%
CC(=O)OC(Cn1nc(C)cc1C)c1ccccc1 (stereo unspecified) | i | 0.58 | -13.2%
COc1ccc(-c2cc(-c3cc(F)ccc3O)[nH]n2)cc1OC | i | -1.18 | -0.1%
CNc1oc(-c2ccc(OCc3ccccc3)cc2)nc1C#N | i | -0.21 | -0.6%
CC1(C)CN=C(N2CCN(C3=NCC(C)(C)S3)CC2)S1 | i | 0.98 | -3.1%
COc1ccc(-n2nnnc2SC(C)C(N)=O)cc1 (stereo unspecified) | i | 0.19 | -1.9%
COC(=O)[C@@H](NC(=O)Nc1ccc(OC)cc1)C(C)C | i | 0.91 | -6.4%
COc1ccc(CC(=O)Nc2c3c(nn2-c2cccc(Cl)c2)CS(=O)(=O)C3)cc1 | i | -0.83 | -3.0%
COC(=O)[C@H](C)NC(=O)NCc1ccc(F)cc1 | i | -0.53 | -4.0%
COCCn1c(NCc2ccc(C)cc2)nc2c1c(=O)[nH]c(=O)n2C | i | 0.08 | 3.7%
Cc1c(C(=O)NCc2ccccn2)sc2nc(-c3ccc(F)cc3)cn12 | i | -0.72 | -11.3%
COc1ccc(S(=O)(=O)N2CCCC(C(=O)NCc3ccco3)C2)cc1Cl (stereo unspecified) | i | -2.96 | -2.9%
Cc1ccc(-n2c(-c3ccccc3)nnc2-c2cccs2)cc1 | i | . | -1.3%
Cc1ccc(S(=O)(=O)CCc2nnc(NC(=O)C3CCCO3)s2)cc1 (stereo unspecified) | i | -1.07 | 4.2%
Cc1noc(C(=O)NCc2ccco2)c1Cl | i | -0.46 | -2.9%
COc1ccc(CNc2oc(COc3ccc(Cl)cc3)nc2C#N)cc1 | i | 0.49 | -2.5%
O=C(c1ccc2c(=O)n(Cc3ccco3)c(=S)[nH]c2c1)N1CCN(Cc2ccccc2)CC1 | i | . | 2.7%
N#Cc1c(NCCCO)nc(-c2ccco2)c2c1CCCC2 | i | . | -2.1%
C=CCn1c2ccccc2c2nnc(SC(CC)C(=O)Nc3nc(C)c(C(=O)OCC)s3)nc21 (stereo unspecified) | i | 0.44 | 1.9%
Clc1ccc(Sc2oc(/C=N/n3cnnc3)cc2Br)cc1 | i | -0.95 | -2.4%
Cc1cccc(NC(=O)c2cc(S(=O)(=O)NCc3ccco3)ccc2F)c1C | i | -0.16 | 6.9%
CCOC(=O)N1CCN(C(c2ccc(F)cc2)c2sc3nc(C)nn3c2O)CC1 (stereo unspecified) | i | 0.49 | 2.6%
Cc1nn(Cc2n[nH]c(=S)n2Cc2ccccc2)c(C)c1Cl | i | . | 2.7%
CCCCCCn1c(CN2CCN(Cc3ccccc3)CC2)nc2c1c(=O)n(C)c(=O)n2C | i | -0.02 | 2.7%
COc1ccccc1NC(=O)N(CCN(C)C)Cc1cc2cc(C)ccc2[nH]c1=O | i | -0.8 | -1.7%
COc1ccc(N(C(=O)c2ccco2)S(=O)(=O)c2cccc([N+](=O)[O-])c2)cc1 | i | . | -2.6%
Cn1c(-c2ccccc2)cnc1N | i | . | 7.4%
C/C(NC1CCCC1)=C(/C#N)C(N)=O | i | 0.07 | -0.7%
CC1=C(n2nnc3ccccc32)C(c2ccccc2)C(C#N)=C(N)O1 (stereo unspecified) | i | -0.91 | -0.3%
CC(C)CC(=O)CN1C(=O)C2(OCCO2)c2ccccc21 | i | -0.21 | 1.1%
CCn1ncc(/C=N/O)c1C | i | . | 2.7%
Cn1c(NCC(O)CO)nc2c1c(=O)n(Cc1ccc(Cl)c(Cl)c1)c(=O)n2C (stereo unspecified) | i | . | 0.7%
Cc1cc(S(=O)(=O)Nc2ccccc2C)ccc1F | i | -0.11 | 5.7%
COc1ccc(OC)c(C(C(=O)NCc2ccco2)N(C(=O)Cn2nnc3ccccc32)C2CC2)c1 (stereo unspecified) | i | -1.11 | -2.6%
CCCCOC(=O)Sc1nc2ccccc2o1 | i | -0.51 | -0.5%
S=c1nc(C2CCCCC2)[nH][nH]1 | i | -0.93 | 8.0%
O=C(NC(NC(=O)c1ccccc1)C(=O)c1ccccc1)c1ccccc1 | i | . | -1.2%
CS(=O)(=O)N1CCCC(C(=O)N2CCc3ccccc3C2)C1 (stereo unspecified) | i | 0.65 | 0.7%
COc1ccc(Br)cc1CNC(=O)CCN1C(=O)COc2ccccc21 | i | -0.31 | 8.2%
N#CC(c1ccc(F)cc1)c1ccc(C(=O)c2ccc(F)cc2)cc1 (stereo unspecified) | i | . | 3.6%
CSc1cccc(-n2c(C)cc(C(N)=O)c2C)c1 | i | -0.4 | -0.6%
COC(=O)c1cc2c(=O)n3ccccc3nc2n(Cc2cccnc2)c1=N | i | 0.99 | -3.6%
CC(C)(C)C(=O)NC1=NCCS1 | i | . | 2.5%
Cc1nn(-c2ccccc2)c2c1C1(C(=O)Nc3ccccc31)N1C(=N2)Sc2ccccc21 (stereo unspecified) | i | 1.93 | 3.1%
COc1ccc(S(=O)(=O)Nc2ccc(S(=O)(=O)N3CCCCC3)cc2)cc1 | i | -0.47 | -2.6%
Cc1onc(-c2c(F)cccc2Cl)c1C(=O)NCc1ccco1 | i | 0.25 | 2.2%

Going on with the list:
SMILES | MT1-MMP reporter | WNV NS2B-NS3 inh | Hsc70
CC1CCCN(c2nc3c(c(=O)[nH]c(=O)n3C)n2Cc2ccccc2Cl)C1 (stereo unspecified) | i | 0.09 | -1.8%
CN(C)CCCN1C(=O)C(=O)/C(=C(/O)c2ccncc2)C1c1ccccc1 (stereo unspecified) | i | -0.28 | 4.1%
COc1ccc(NCc2nnc(SCC(=O)N3CCCc4ccccc43)o2)cc1 | i | 0.27 | -2.2%
CCc1ccccc1NC(=O)CSc1nc2ccccc2n1CC(=O)N(C)C | i | 0.08 | -2.6%
Cc1cc(C(=O)COC(=O)C2COc3ccccc3O2)c(C)n1CC1CCCO1 (stereo unspecified) | i | -1.18 | 2.9%
O=C(O)C1CCC(=O)N1Cc1ccccc1Cl (stereo unspecified) | i | 0.4 | 1.4%
CC(C)CCNC(=O)NC(=O)COc1ccccc1C#N | i | 0.13 | 0.7%
COc1cc(C(=O)N2CCN(Cc3ccccc3C(F)(F)F)CC2)cc(OC)c1OC | i | -1.19 | -9.3%
Cc1ccsc1C(=O)OCC(=O)Nc1sccc1C(N)=O | i | -0.38 | -2.4%
CCOc1cc(CO)ccc1OCC(=O)N1CCCCC1 | i | -0.42 | -5.3%
Cc1ccc(NC(=O)CN2CCC3(O)CCCCC3C2c2ccc3c(c2)OCO3)c(C)c1 (stereo unspecified) | i | 0.04 | -1.3%
CC1(C)OC(=O)N(c2cccnc2)C1(C)O (stereo unspecified) | i | -0.66 | -2.7%

In another format: entries from further up.
Order of results – MT1-MMP reporter	WNV NS2B-NS3 inh	Hsc70
COC(=O)c1cc2c(=O)n3ccccc3nc2n(Cc2cccnc2)c1=N
 : i	0.99	-3.6%
CC(C)(C)C(=O)NC1=NCCS1
 : i	.	2.5%
Cc1nn(-c2ccccc2)c2c1C1(C(=O)Nc3ccccc31)N1C(=N2)Sc2ccccc21 (stereo unspecified)
 : i	1.93	3.1%
COc1ccc(S(=O)(=O)Nc2ccc(S(=O)(=O)N3CCCCC3)cc2)cc1
 : i	-0.47	-2.6%
Cc1onc(-c2c(F)cccc2Cl)c1C(=O)NCc1ccco1
 : i	0.25	2.2%
CC1CCCN(c2nc3c(c(=O)[nH]c(=O)n3C)n2Cc2ccccc2Cl)C1 (stereo unspecified)
 : i	0.09	-1.8%
CN(C)CCCN1C(=O)C(=O)/C(=C(/O)c2ccncc2)C1c1ccccc1 (stereo unspecified)
 : i	-0.28	4.1%
COc1ccc(NCc2nnc(SCC(=O)N3CCCc4ccccc43)o2)cc1
 : i	0.27	-2.2%
CCc1ccccc1NC(=O)CSc1nc2ccccc2n1CC(=O)N(C)C
 : i	0.08	-2.6%
Cc1cc(C(=O)COC(=O)C2COc3ccccc3O2)c(C)n1CC1CCCO1 (stereo unspecified)
 : i	-1.18	2.9%
O=C(O)C1CCC(=O)N1Cc1ccccc1Cl (stereo unspecified)
 : i	0.4	1.4%
CC(C)CCNC(=O)NC(=O)COc1ccccc1C#N
 : i	0.13	0.7%
COc1cc(C(=O)N2CCN(Cc3ccccc3C(F)(F)F)CC2)cc(OC)c1OC
 : i	-1.19	-9.3%
Cc1ccsc1C(=O)OCC(=O)Nc1sccc1C(N)=O
 : i	-0.38	-2.4%

(list continues)
SMILES | MT1-MMP reporter | WNV NS2B-NS3 inh | Hsc70
CCC(=O)Nc1nc(C)c(C(=O)N2CCCCC2)s1 | i | -1.79 | 3.1%
Cc1cc(NC(=O)CC(C)(C)C)nc2c1c(=O)oc1ccccc12 | i | -0.6 | -12.8%
CCOCCOc1nc2c(c(=O)n(C)c(=O)n2C)n1CCc1ccccc1 | i | 0.8 | -0.6%
CCCCSc1nnc2c(n1)OC(C(=O)c1ccccc1)Nc1ccccc1-2 (stereo unspecified) | i | . | 0.7%
c1ccc(CN2CCN(c3nc4ccccc4c4ccccc34)CC2)cc1 | i | . | 4.2%
CCCCn1c(=O)c(C(=O)c2ccccc2)nc2ccccc21 | i | . | 2.4%
Cc1ccc(S(=O)(=O)NC2CCCc3ccccc32)cc1C (stereo unspecified) | i | . | -1.3%
CCOc1ccc(Nc2cc(=O)n(C)c(=O)n2C)cc1 | i | -0.83 | -0.5%
COc1ccc(-c2cc(=O)[nH]c(NCc3ccccc3)n2)cc1 | i | -0.03 | 3.8%
COc1ccc(NC(=O)C2CCCN2C(=O)Nc2ccccc2)cc1OC (stereo unspecified) | i | . | 3.6%
Cc1cccc(Cn2c(SCCN3CCCCC3)nc3c2c(=O)[nH]c(=O)n3C)c1 | i | 0.52 | 3.4%
O=C(Oc1ccc2c(=O)c(Oc3ccc4ccccc4c3)coc2c1)c1ccco1 | i | . | 1.8%
CC(C)(C)c1ccc(C(=O)NCCC(=O)N2CCN(c3ncccn3)CC2)cc1 | i | . | 0.7%
COCCNC(=O)c1nn(-c2cc(OC)cc(OC)c2)c(=O)c2ccccc12 | i | -0.08 | 2.2%
CCCCCCCCC(=O)Nc1cc(C)ccc1OC | i | . | 4.0%
CC1CCCCC1NC(=O)C(=O)NCC1CCCO1 (stereo unspecified) | i | . | 1.5%
CC(C)NC(=O)CN1C(=O)NC(CCc2ccccc2)C1=O (stereo unspecified) | i | . | 1.2%
O=C(NCCCn1ccnc1)c1cccnc1 | i | 0.3 | -1.1%
CCC(=O)N1c2ccccc2NC2=C(C(=O)CCC2)C1c1ccc(N(C)C)cc1 (stereo unspecified) | i | -1.58 | -9.1%
CCOC(=O)C1CCCN(C2CC(=O)N(c3ccc(C)c(C)c3)C2=O)C1 (stereo unspecified) | i | -1.17 | -5.4%
N#CC1(P(=O)(c2ccccc2)c2ccccc2)CC1 | i | -0.03 | 0.4%
CCOC(=O)C1=C(C)NC(=O)NC1c1ccc(OC(C)C(=O)O)c(OC)c1 (stereo unspecified) | i | 0.14 | 1.5%
CC1CCCN(S(=O)(=O)Cc2ccc(Cl)cc2)C1 (stereo unspecified) | i | . | -1.2%
CC1=C(C(=O)OC(C)C)C(c2cccnc2)C2=C(CC(C)(C)CC2=O)N1 (stereo unspecified) | i | . | 10.1%
CCOc1cc(C2Nc3ccccc3C(=O)N2c2ccccc2OC)ccc1O (stereo unspecified) | i | 0.46 | -6.7%
Cc1cccc(NC(=O)CSc2nnc(-c3ccccc3C)o2)c1 | i | -0.3 | -4.8%
Cn1c(=O)c2c(ncn2CCCNC2=CC(C)(C)CC(=O)C2)n(C)c1=O | i | 0.84 | 0.8%
COc1ccc(N2CCN(C(=N)/C(C(C)=O)=C(\C)O)CC2)cc1 | i | . | 6.0%
CCN1C(=O)C(C)S/C1=N\S(=O)(=O)c1ccc(Cl)s1 (stereo unspecified) | i | 1.35 | 0.8%
CC(C)NC(=O)C1(c2ccccc2)CCOCC1 | i | . | -0.1%
CCOc1nc(NCCC2=CCCCC2)nc(N2CCOCC2)n1 | i | -0.5 | 0.9%
O=C(O)C1C2C=CC(C2)C1C(=O)OCC1CCCO1 (stereo unspecified) | i | 1.62 | -2.8%
COc1ccc(OC)c(C2C3=C(N=C4SCC(=O)N42)c2ccccc2CC3)c1 (stereo unspecified) | i | -0.7 | 4.0%
